High-throughput results: PubChem BioAssay, National Center for Advancing Translational Sciences (NCATS)
Marburg entry inh = inhibitors of Marburg virus binding or cell entry | Potency, µM (highest dose often 37.8 µM), for inactives: at the top dose activity change, negative = inhibition, usual class: inhibitors | actives 1.8% (n = 300,000) | AID 540276 | Marburg virus pseudotyped entry inhibition, cell reporter; control for the full effect not named in the record; about a third of the inactives were read at about 46 µM; active = well fitted inhibition curve with a large enough effect; inconclusive = small, poorly fitted or top-dose-only effect, or effect the other way; inactive = flat fitted curve, though single readings scatter; tested in HEK293 cells; about a fifth of its hits are not listed in these tables; note: % is set by controls: 0 for no effect and ±100 for the full control effect; luciferase read-out
2A StopGo = FMDV 2A StopGo reporter, luciferase signal; human cells with a luciferase reporter of 2A StopGo recoding; control for the full effect not named in the record; Potency, µM (top dose mostly 57.9 µM), inactives show at the highest dose signal change, negative = less light; actives 1.2% (n = 410,000); AID 1159524; active = well fitted falling curve with a large enough effect; inconclusive = small, poorly fitted or top-dose-only effect; inactive = no such curve, though single readings can be large or run the other way; tested in HEK293T cells; note: % is set by controls: 0 for no effect and ±100 for the full control effect; nearly all actives have a fitted effect of over 45% in size; luciferase light after 4 h
Cruzain inh Det = blocks cruzain activity in presence of Triton detergent. P25779. purified cruzain, Z-FR-AMC fluorescence, 0.01% Triton. Potency, µM, inactives show max response, negative = inhibition, most hits filed as inhibitors. actives 0.43% (n = 200,000). AID 1478; active = well fitted curve in the direction sought with a large enough effect; inconclusive = small, poorly fitted or top-dose-only effect, or another doubt; inactive = no such curve, though single readings can be large; an effect the other way counts as inactive or inconclusive;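 note: plate controls were neutral wells for no effect and buffer without enzyme for full effect; nearly all actives have a fitted effect of over 40% in size; top concentration of the series not given in the record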
Target sequence (P25779 123-467 limits assumed): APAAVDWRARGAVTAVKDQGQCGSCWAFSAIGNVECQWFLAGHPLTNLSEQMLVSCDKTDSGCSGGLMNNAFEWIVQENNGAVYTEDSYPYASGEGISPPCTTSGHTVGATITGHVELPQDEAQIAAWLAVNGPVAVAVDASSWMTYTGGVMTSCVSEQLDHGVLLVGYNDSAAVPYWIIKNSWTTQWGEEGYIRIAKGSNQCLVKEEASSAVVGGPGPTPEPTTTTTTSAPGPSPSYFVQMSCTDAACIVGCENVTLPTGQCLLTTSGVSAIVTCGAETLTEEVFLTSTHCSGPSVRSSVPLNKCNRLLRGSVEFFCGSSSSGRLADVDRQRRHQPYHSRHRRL
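Enzyme 1.5 nM, Z-FR-AMC 2 uM, NaOAc 100 mM pH 5.5, DTT 5 mM, Triton X-100 0.01%; 15 min RT compound preincubation; kinetic ex360/em450, 60 s delta.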
SARS PLP yeast = SARS-CoV PLP inhibition in yeast; S. cerevisiae expressing SARS-CoV PLpro, growth rescue; control for the full effect not named in the record; Potency, µM (titrated, usually from 32.9 µM), without a hit: top-dose activity, positive = growth rescue; actives 0.19% (n = 330,000); note: 0% is about no effect; nearly all actives have a fitted effect of over 55% in size; growth read by luminescence after 48 h
Cruzain noTriton = inhibitors of Trypanosoma cruzi cruzain without detergent; P25779; purified cruzain, Z-FR-AMC fluorescence, no detergent; Potency, µM, without a hit: max response, negative = inhibition, most hits filed as inhibitors; actives 2.3% (n = 200,000); active = well fitted curve in the direction sought with a large enough effect; inconclusive = small, poorly fitted or top-dose-only effect, or another doubt; inactive = no such curve, though single readings can be large; an effect the other way counts as inactive or inconclusive;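 note: plate controls were enzyme without inhibitor for no effect and buffer without enzyme for full effect; nearly all actives have a fitted effect of over 40% in size; top concentration of the series not given in the record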
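Detergent-free condition (0.00005% Triton X-100) in acetate buffer pH 5.5 with DTT. 1.5 nM enzyme and compound were pre-mixed 15 min, then 2 uM Z-FR-AMC substrate added; reaction progress from fluorescence change between first and third reads (60 s).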
RE007 growth inh = less growth of the S. pombe RE007 Vpr strain. S. pombe RE007 Vpr strain, BacTiter-Glo ATP luminescence, 24 h; control for the full effect not named in the record. AID 651644. Potency, µM (titrated, usually from 92.2 µM), without a hit: at the top dose activity change, negative = less growth. actives 0.21% (n = 360,000); active = well fitted falling curve with a large enough effect; inconclusive = small, poorly fitted or top-dose-only effect; inactive = no such curve, though single readings can be large or run the other way;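 note: % is set by controls: 0 for no effect and ±100 for the full control effect; nearly all actives have a fitted effect of over 50% in size; the assay follows cell death caused by Vpr and the record does not say whether a fall means rescue or toxicity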
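Fission yeast strain RE007, carrying one chromosomally integrated HIV-1 vpr copy, was seeded at OD 0.01 in PMG+AL medium with 23 nL pinned compound. After 24 h at 30 °C and 99% humidity, viability was read by BacTiter-Glo luminescence.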
NS1 inh = inhibitors of influenza NS1 protein function | AID 2326 | Potency, µM (highest dose often 46.1 µM), without a hit: top-dose activity, positive = more growth | S. cerevisiae slowed by influenza A NS1, growth recovery by OD600 | actives 0.4% (n = 270,000); note: actives are rising curves; nearly all actives have a fitted effect of over 50% in size
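Read-out: OD600 growth recovery of NS1-expressing budding yeast. Cells grown overnight at 30C in -URA glucose medium, washed, resuspended and diluted 1:100 in 2% galactose assay medium, pH 6.0. Same strain lacking NS1 served as positive control.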
Lassa entry inh = inhibitors of Lassa virus binding or cell entry. Lassa virus pseudotype entry inhibition, cell reporter; control for the full effect not named in the record. actives 1.2% (n = 300,000). AID 540256. Potency, µM (series often up to 37.9 µM), without a hit: top-dose activity change, negative = inhibition, actives largely listed as inhibitors; active means well fitted inhibition curve with a large enough effect; inconclusive means small, poorly fitted or top-dose-only effect, or effect the other way; inactive means flat fitted curve, though single readings scatter; tested in HEK293 cells; note: % is set by controls: 0 for no effect and ±100 for the full control effect; nearly all actives have a fitted effect of over 50% in size; luciferase read-out
Active calls of the source: *; ? = inconclusive; . = no result given; & = joins results of further samples; [ ] = another dose, or the depositor's remark. Unless noted, calls come from the whole dose curve; as a rule, active means well fitted rising curve with a large enough effect; inconclusive means small, poorly fitted or top-dose-only effect; inactive means no such curve, though single readings can be large or run the other way. Potency is the fitted concentration of half-maximal effect.

item	compound	NS1 inh	RE007 growth inh	Lassa entry inh	SARS PLP yeast	Cruzain inh Det	2A StopGo	Marburg entry inh	Cruzain noTriton
1	CN(CCOc1ccc(Cl)cc1)C(=O)C1CCN(C(=O)c2ccc(F)cc2)CC1	-8%	2%	?	-3%	.	-12%	-13%	.
2	CCn1cc(C(=O)N2CCN(c3cccc(C)c3C)CC2)c(=O)c2ccc(C)nc21	-4%	13%	-27%	-1%	.	4%	-9%[46.1 µM]	.
3	O=C1COc2ccccc2N1Cc1ccc(Cl)cc1	-8%	18%	-1%	-2%	.	?	-5%	.
4	Cc1nc2ccccc2c(=O)n1Cc1ccco1	5%	-1%	.	0%	.	-6%	.	.
5	C/C(CC(=O)Nc1ccc(C)c(Cl)c1)=N\NC(=O)c1cccc(O)c1	4%	-17%	-6%	1%	.	14%	0%	.
6	Cc1ccc(C)c(NS(=O)(=O)c2cc(C(=O)NCc3ccncc3)ccc2C)c1	-6%	8%	-6%	4%	.	39%[activator]	?	.
7	CCCOc1ccc(C2Nc3cccc4cccc(c34)N2)cc1	-6%	0%	0%[46.1 µM]	-4%	.	5%	-24%[46.1 µM]	.
8	COc1ccc(OC)c(/C=C/C(=O)Nc2ccc(OC)nc2)c1	-9%	-4%	.	-7%	.	-9%	.	.
9	CCCCOC(=O)c1ccc(NC(=O)c2cc(-c3cccs3)on2)cc1	.	.	0%[46.1 µM]	.	-0.7%	17%	-1%[46.1 µM]	2%
10	CC(C)CN1CCc2nc(Nc3ccc(F)cc3F)ncc2C1	.	.	29%[46.1 µM]	.	-0.7%	46%[activator]	.	-6%
11	Cc1ccc(-n2c(=O)cc(N3CCc4ccccc4C3)[nH]c2=O)cc1	4%	10%	19%	18%	3.2%	-21%	?	?
12	O=S(=O)(Nc1ccc(-c2ccc(N3CCCC3)nn2)cc1)c1ccccc1Cl	.	.	-11%[46.1 µM]	.	-6.2%	33%[activator]	.	?
13	O=C(NCCc1c[nH]c2ccccc12)C(=O)c1c[nH]c2ccccc12	-8%	6%	.	19%	.	7%	.	.
14	Cc1ccc(NC(=O)c2c(C)nc3sc(C(=O)Nc4ccc(F)cc4)c(N)c3c2-c2ccc(C)o2)c(C)c1	.	.	3%[46.1 µM]	.	-2.8%	-9%	?	-17%
15	C#CCOc1ccccc1/C=C1/C(=O)ON=C1C	2%	0%	?	-1%	.	40µM*	-18%[46.1 µM]	.
16	Cc1ccc(NC(=O)CS(=O)(=O)c2cn(CC(=O)N3CCOCC3)c3ccccc23)cc1	.	-2%	15%[46.1 µM]	-7%	.	21%	-1%[46.1 µM]	.
17	COc1ccc(C(=O)Oc2cc(OC)cc(OC)c2C(C)=O)cc1	-55%	-7%	12%	18%	-4.8%	-13%	?	3%
18	Cc1ccccc1-n1nc(C)c2cc(C(=O)NC3CC3)sc21	-16%	14%	10%	-13%	-1.5%	13%	20%	-3%
19	COc1ccc(CN2C(=O)CN(C3CCCCCC3)C(=O)C2c2ccc(OC)c(OC)c2)cc1 (stereo not given)	-9%	-9%	?	1%	1.5%	-12%	-9%	?
20	COc1ccc(NC(=O)CCCN2C(=O)C(c3ccccc3)Oc3cccnc32)c(OC)c1 (stereo not given)	-9%	7%	-15%[46.1 µM]	-2%	-3.7%	-18%&-16%	.	18%
21	COc1ccccc1CCNC(=O)NC1CCCCC1	-3%	-14%	.	0%	.	51%[activator]	.	.
22	Nc1nonc1C(=O)N1CCCC1	0%	0%	9%[46.1 µM]	0%	.	3%	-16%[46.1 µM]	.
23	Cc1ccc(OCC(O)CN2CCN(CC(O)COc3ccc(C)cc3Cl)CC2)c(Cl)c1 (stereo not given)	5%	-10%	-5%	?	-1.7%	-6%	?	13%
24	C=CCN1C(=O)CS/C1=N\N=C\c1cccc([N+](=O)[O-])c1	.	3%	-6%	-1%	.	19%	-10%[46.1 µM]	.
25	Cc1nn(-c2ccccc2)c(N2CCCC2)c1/C=N/NC(=O)c1cc(-c2ccccn2)nc2ccccc12	21%	8%	?	-3%	-5.5%	-7%	?	6%
26	CCOC(=O)Nc1ccc2nc3n(c(=O)c2c1)CCCCC3	.	-4%	10%	-3%	.	53%[activator]	10%	.
27	COC(=O)c1c(C)[nH]c(C(=O)CSc2ccc(Cl)cc2)c1C	-4%	18%	?	-3%	-3.0%	53%[activator]	?	-4%
28	Cc1csc(NC(=O)CSc2nnc(-c3cccs3)n2C)n1	2%	-14%	2%	6%	1.7%	27%	8%	-4%
29	CN(C(=O)COC(=O)c1ccc(NS(=O)(=O)c2cccs2)cc1)C1CCCCC1	-16%	7%	19%	-11%	-4.8%	11%	21%	1%
30	Cc1ccccc1N=Nc1ccc(O)c2ncccc12	-16%	6%	?	3.5µM*	0.1%	0%	5.6µM*	20µM*

Later entries
item	compound	NS1 inh	RE007 growth inh	Lassa entry inh	SARS PLP yeast	Cruzain inh Det	2A StopGo	Marburg entry inh	Cruzain noTriton
31	Cc1ccc(N(CC(=O)Nc2ccc(C)c(Cl)c2)S(=O)(=O)c2cccs2)cc1	.	.	-18%[46.1 µM]	.	-5.3%	-24%	28%[46.1 µM]	-26%
32	COc1ccccc1NC(=O)c1sc2nc(C)c(C(=O)Nc3ccc(C)cc3C)c(-c3ccc(Br)cc3)c2c1N	.	.	-11%[46.1 µM]	.	-1.3%	-13%	-3%[46.1 µM]	-3%
33	O=C(CCCN1C(=O)c2ccccc2C1=O)NCc1ccco1	3%	3%	1%	?	-3.4%	-11%	1%[46.1 µM]	14%
34	C/C(=N\NC(=O)c1ccc(O)cc1)c1ccc2c(c1)Nc1ccccc1S2	-2%	-13%	-13%[46.1 µM]	-18%	-17%	0%	?	?
35	O=C(CN1C(=O)NC2(CCCC2)C1=O)Nc1ccc(Cl)cc1F	3%	-3%	24%[46.1 µM]	1%	.	-5%	5%[46.1 µM]	.
36	CCOc1ccc(-c2noc(CCCC(=O)NC3CCCC3)n2)cc1OC	13%	1%	-22%	0%	.	?	?	.
37	COc1cc2c(cc1NC(=O)COCC(=O)O)oc1ccccc12	0%	6%	24%[46.1 µM]	-3%	.	-5%	2%[46.1 µM]	.
38	CCOC(=O)C1CCCCN1Cc1cccc(C(F)(F)F)c1 (stereo not given)	-13%	4%	-17%	9%	4.8%	-1%	11%	11%
39	COc1ccc(N2CCc3c(C)nc4c(OC)cc(OC)cc4c32)c(OC)c1	9%	3%	?	-4%	-1.5%	0%	12µM*	-19%
40	O=C(/C=C/c1cccs1)c1cc(F)ccc1OC(=O)N1CCOCC1	.	6%	-3%	.	.	22µM*	-13%	.
41	Cc1ccccc1-n1nc2c(c1NC(=O)c1cc3ccccc3oc1=O)CS(=O)C2 (stereo not given)	2%	13%	-20%	2%	1.1%	-26%	9%[46.1 µM]	-1%
42	O=C(Cn1nnc(-c2ccc(C(F)(F)F)cc2)n1)NCCc1ccccc1	.	.	18%[46.1 µM]	.	-1.1%	-17%	-2%[46.1 µM]	-16%
43	CC(C)Oc1ccc(CNC(=O)CCCn2c(=O)c3cccn3c3cccnc32)cc1	.	.	9%[46.1 µM]	.	-2.8%	-1%	.	?
44	COCCNC(=O)c1cccc(OC2CCN(Cc3ccc(OC(F)F)cc3)CC2)c1	-5%	-17%	-6%[46.1 µM]	2%	.	?	3%[46.1 µM]	.
45	COc1ccc(CNC(=O)C(OC(=O)c2nsc(Cl)c2Cl)C(C)C)cc1 (stereo not given)	-5%	-5%	?	0%	.	-1%	0%[46.1 µM]	.
46	CC(=O)NC(C)C(=O)OCC(=O)c1ccc(-c2ccccc2)cc1 (stereo not given)	.	2%	25%	1%	.	48%[activator]	2%[46.1 µM]	.
47	Cc1csc(NC(=O)c2c(O)c3c(n(CC(C)C)c2=O)CCCC3)n1	-18%	-17%	?	-5%	-2.1%	-29%	?	?
48	Cc1ccc(-c2cc(Cc3ccncc3)c(=O)[nH]n2)cc1	0%	-7%	-27%	1%	.	0%	?	.
49	CCCCn1c(=O)c2oc3ccccc3c2n(CC(=O)Nc2cc(C)ccc2C)c1=O	.	.	7%[46.1 µM]	.	-0.7%	-21%	.	23%
50	Cc1cccc(-c2csc(N)c2C(=O)OC(C)C)c1	6%	?	-8%	13%	-16%	-21%	-6%	-9%
51	CN1C(=O)/C(=C\c2ccc(N(C)C)cc2)OC1=S	5%	-15%	19%[46.1 µM]	0%	.	9%	9%[46.1 µM]	.

An excerpt from above in order of molar mass, smallest number first.
item	compound	NS1 inh	RE007 growth inh	Lassa entry inh	SARS PLP yeast	Cruzain inh Det	2A StopGo	Marburg entry inh	Cruzain noTriton
38	CCOC(=O)C1CCCCN1Cc1cccc(C(F)(F)F)c1 (stereo not given)	-13%	4%	-17%	9%	4.8%	-1%	11%	11%
34	C/C(=N\NC(=O)c1ccc(O)cc1)c1ccc2c(c1)Nc1ccccc1S2	-2%	-13%	-13%[46.1 µM]	-18%	-17%	0%	?	?
39	COc1ccc(N2CCc3c(C)nc4c(OC)cc(OC)cc4c32)c(OC)c1	9%	3%	?	-4%	-1.5%	0%	12µM*	-19%

Whole records as entered above.
Results for `Cc1ccc(N(CC(=O)Nc2ccc(C)c(Cl)c2)S(=O)(=O)c2cccs2)cc1` = NS1 inh = .; RE007 growth inh = .; Lassa entry inh = -18%[46.1 µM]; SARS PLP yeast = .; Cruzain inh Det = -5.3%; 2A StopGo = -24%; Marburg entry inh = 28%[46.1 µM]; Cruzain noTriton = -26%
Results for `O=C(CCCN1C(=O)c2ccccc2C1=O)NCc1ccco1` = NS1 inh = 3%; RE007 growth inh = 3%; Lassa entry inh = 1%; SARS PLP yeast = ?; Cruzain inh Det = -3.4%; 2A StopGo = -11%; Marburg entry inh = 1%[46.1 µM]; Cruzain noTriton = 14%
Results for `CN1C(=O)/C(=C\c2ccc(N(C)C)cc2)OC1=S` = NS1 inh = 5%; RE007 growth inh = -15%; Lassa entry inh = 19%[46.1 µM]; SARS PLP yeast = 0%; Cruzain inh Det = .; 2A StopGo = 9%; Marburg entry inh = 9%[46.1 µM]; Cruzain noTriton = .
